High-throughput results as filed in PubChem BioAssay.
Yeast UUG start: yeast start codon fidelity modulation; S. cerevisiae UUG-firefly luciferase reporter, luminescence/redox ratio; activity score, % at 18.7 µM; 350,000 tested, 0.13% active; AID 602363;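 active means replicate mean at a twofold rise or more, about +100% in these data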;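 further: firefly luciferase made from a UUG start codon reports start codon fidelity; reporter light over untreated wells divided by growth signal over untreated wells; some hits fall short of that in this replicate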
eIF4H FP inh: inhibitors of RNA binding by human eIF4H | inhibition, % at 35 µM | Q15056 | eIF4H fluorescence polarization binding assay | 290,000 tested, 0.94% active;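 active means 50% or more with normal probe brightness, or confirmed in later tests; about a fifth of its hits are not listed in these tables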;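 further: calls also rest on retests at 20 µM and on dose response follow-up; 0% = protein and probe with vehicle and 100% = probe without protein; strong numbers were not always called active; many hits fall short of the cut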
Rce1 inhib: blocks yeast Ras-converting enzyme; AID 2563; calls only; 290,000 tested, 0.27% active; yeast membranes, quenched prenylated peptide cleavage fluorescence; Q03530;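 active means fall in fluorescence gain of 50% or more versus controls, with final raw signal at or below 3038400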;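 further: plate controls were neutral control wells for no effect and wells lacking membranes for full effect; tested at 10 µM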
Target sequence (Q03530 whole entry, looked up): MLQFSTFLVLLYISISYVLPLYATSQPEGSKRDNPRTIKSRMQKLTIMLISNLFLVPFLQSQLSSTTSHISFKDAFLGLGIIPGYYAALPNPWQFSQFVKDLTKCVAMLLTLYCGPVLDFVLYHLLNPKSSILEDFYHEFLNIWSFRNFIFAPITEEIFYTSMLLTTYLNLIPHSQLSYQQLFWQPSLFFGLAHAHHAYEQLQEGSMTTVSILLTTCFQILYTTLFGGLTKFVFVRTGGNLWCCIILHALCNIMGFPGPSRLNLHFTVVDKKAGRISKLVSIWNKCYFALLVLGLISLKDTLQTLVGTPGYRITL
PABP FP inh: blocks human PABP binding to poly(A) RNA; P11940; fluorescence polarization; inhibition, % at 35 µM; 290,000 tested, 1% active;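 active means 50% or more with normal probe brightness, or confirmed in later tests; about a fifth of its hits are not listed in these tables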;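 further: calls also rest on retests at 20 µM and on dose response follow-up; controls were probe without protein and protein plus probe with vehicle; some compounds called inactive have numbers as strong as hits; many hits fall short of the cut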
HIV Env fusion: blocks HIV Env-driven cell-cell fusion; HeLa-JRFL Env/CEM21 cell fusion, luciferase; inhibition, % at 12.3 µM; 360,000 tested, 1.1% active; AID 651610;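 active means mean replicate inhibition score of at least 50 and every replicate individually at or above 50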;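 further: 0% = plate neutral controls and 100% = maraviroc near 300 nM; one replicate is shown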
CSC inhib: cancer stem cell inhibition; 300,000 tested, 1.1% active; AID 2717; inhibition, % at 7.5 µM; cancer stem cell-like cells viability, luminescence;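 active means mean at 75% or more and at least half the replicates too; tested in HMLE shEcad cells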;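 further: 0% = median of negative and 100% = median of positive control wells; the first replicate is given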
MT1-MMP act inh: inhibitors of human MT1-MMP activation. P50281. HT1080 RFP-PRO-GFP cells, GFP/RFP ratio fluorescence, overnight; percent of plate control window, DMSO zero. GFP/RFP ratio change, % at 20 µM. 360,000 tested, 0.061% active;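 active means GFP/RFP ratio change of at least 30% with cell ATP level not reduced by more than half and red fluorescence within 50% of control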; further: strong numbers were not always called active
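Material – HT1080 RFP-PRO-GFP cells · Control set – DMSO wells and RFP-L50D-GFP cells · Incubation – overnight cell settling, then overnight compound exposure, 37 °C, 5% CO2 · Compound dosing – single-point 20 µM compound, 1% DMSO · Read-out – GFP/RFP fluorescence ratio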
eIF4H FP inh retest: also measured in eIF4H FP inh; calls as there; inhibition, %; compound at 20 µM; confirmation average;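 mean of two retest wells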
PABP FP inh retest: recorded beside PABP FP inh, whose call it bears; inhibition, %; compound at 20 µM; confirmation repeats;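 mean of two retest wells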
MT1-MMP act inh RFP: also measured in MT1-MMP act inh; calls as there; RFP signal change, %; measured here: RFP expression control read;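 0 = vehicle wells; hits needed this value within 50% of zero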
An asterisk follows results filed as active.

For COc1ccc(C(C)=NNS(=O)(=O)c2ccc(C)cc2)cc1OC the results were Yeast UUG start -2, HIV Env fusion 2, MT1-MMP act inh 0 and MT1-MMP act inh RFP 1.
COc1ccc(C)cc1S(=O)(=O)Nc1cccc(SC)c1 was read as eIF4H FP inh -1, Rce1 inhib inactive, PABP FP inh -12, CSC inhib -10, MT1-MMP act inh 6 and MT1-MMP act inh RFP -3.
Screening Clc1cccc(OCCN2CCN(CCOc3cccc(Cl)c3)CC2)c1 returned eIF4H FP inh 1, Rce1 inhib inactive, PABP FP inh 2, HIV Env fusion 13, CSC inhib 36, MT1-MMP act inh -3 and MT1-MMP act inh RFP -6.
Cc1ccc(NC(=O)c2cc(S(=O)(=O)NCCc3ccccc3)ccc2F)cc1Cl was read as Yeast UUG start -15, eIF4H FP inh -5, Rce1 inhib inactive, PABP FP inh 11, HIV Env fusion -6, CSC inhib 55, MT1-MMP act inh -24 and MT1-MMP act inh RFP -10.
For CC(C)NC(=O)c1ccc2c(c1)N(CC(=O)Nc1ccccc1F)C(=O)C(C)(C)O2 the results were Yeast UUG start -11, eIF4H FP inh -1, Rce1 inhib inactive, PABP FP inh 15, HIV Env fusion 8, CSC inhib -12, MT1-MMP act inh 2 and MT1-MMP act inh RFP 8.
Screening COc1cc(/C=N/n2cnnc2)ccc1OCc1ccc(C)cc1 returned eIF4H FP inh 9, Rce1 inhib inactive, PABP FP inh 2, CSC inhib 5, MT1-MMP act inh 9 and MT1-MMP act inh RFP 5.
COc1ccc(/C=C/C(=O)Nc2cccc(S(=O)(=O)N3CCOCC3)c2)cc1OC was read as Yeast UUG start -1, HIV Env fusion 3, MT1-MMP act inh 3 and MT1-MMP act inh RFP -3.
Screening COc1ccc(C(=O)NC2CCN(CC(=O)NCc3ccccc3)CC2)cc1 returned eIF4H FP inh -2, Rce1 inhib inactive, PABP FP inh -7, HIV Env fusion -9, MT1-MMP act inh 1 and MT1-MMP act inh RFP 3.
Screening S=C(NCc1ccco1)Nc1ccc(Cl)cc1Cl returned eIF4H FP inh -6, Rce1 inhib inactive, PABP FP inh 6, HIV Env fusion 7, CSC inhib 0, MT1-MMP act inh 4 and MT1-MMP act inh RFP -8.
`Nc1ccn(Cc2ccccc2F)n1` gave eIF4H FP inh -3, PABP FP inh -1, HIV Env fusion -7, CSC inhib -9, MT1-MMP act inh 1 and MT1-MMP act inh RFP 4.
Screening O=[N+]([O-])c1ccc(Cl)c(S(=O)(=O)Nc2ccc3cn[nH]c3c2)c1 returned Yeast UUG start -14, HIV Env fusion -64, CSC inhib -4, MT1-MMP act inh 0 and MT1-MMP act inh RFP 0.
`NS(=O)(=O)c1ccc(CCNC(=O)C2CCCN2C(=O)c2cccs2)cc1` (stereo unspecified) gave Yeast UUG start -9, HIV Env fusion 8, MT1-MMP act inh -4 and MT1-MMP act inh RFP 3.
`O=C(Nc1ccccn1)C(=O)Nc1ccccn1` gave eIF4H FP inh -11, Rce1 inhib inactive, PABP FP inh -4, HIV Env fusion 0, CSC inhib -18, MT1-MMP act inh 6 and MT1-MMP act inh RFP 3.
O=c1[nH]cc(-c2ccc(Br)cc2)n1Cc1ccccc1 was read as Yeast UUG start -3, eIF4H FP inh -8, Rce1 inhib inactive, PABP FP inh 10, HIV Env fusion 6, CSC inhib -8, MT1-MMP act inh 1 and MT1-MMP act inh RFP 3.
NC(=O)CN(N=Nc1cccc([N+](=O)[O-])c1)c1cccc([N+](=O)[O-])c1 was read as eIF4H FP inh 2, Rce1 inhib inactive, PABP FP inh -1, HIV Env fusion 26, CSC inhib -2, MT1-MMP act inh 5 and MT1-MMP act inh RFP -8.
Screening O=C(Nn1c(Cc2ccccc2)nc2ccccc2c1=O)c1c(O)c2cccc3c2n(c1=O)CCC3 returned eIF4H FP inh 3, Rce1 inhib inactive, PABP FP inh -4, HIV Env fusion -8, CSC inhib 18, MT1-MMP act inh -14 and MT1-MMP act inh RFP -14.
`O=C(COc1ccc(Br)cc1)OCCN1CCCCC1` gave Yeast UUG start -5, eIF4H FP inh -1, Rce1 inhib inactive, PABP FP inh -9, HIV Env fusion -24, CSC inhib -6, MT1-MMP act inh -3 and MT1-MMP act inh RFP -1.
Screening CC(=O)Nc1ccc(NC(=O)C(C)OC(=O)c2oc3ccccc3c2C)cc1 (stereo unspecified) returned Rce1 inhib inactive, HIV Env fusion 20, CSC inhib 2, MT1-MMP act inh 6 and MT1-MMP act inh RFP 0.
`CCS(=O)(=O)NCC(c1cccnc1)N1CCN(c2ccc(F)cc2)CC1` (stereo unspecified) gave eIF4H FP inh 3, Rce1 inhib inactive, PABP FP inh -3, CSC inhib 7, MT1-MMP act inh -3 and MT1-MMP act inh RFP 0.
For S=c1[nH]ncn2c1cc1oc3ccccc3c12 the results were Yeast UUG start -17, eIF4H FP inh 7, Rce1 inhib inactive, PABP FP inh 2, HIV Env fusion -61, CSC inhib -9, MT1-MMP act inh 1 and MT1-MMP act inh RFP 0.
Screening Cc1cc(C(=O)N2CCOCC2)n(-c2ccccc2)n1 returned Yeast UUG start 0, eIF4H FP inh -1, Rce1 inhib inactive, PABP FP inh -5, HIV Env fusion -31, CSC inhib -2, MT1-MMP act inh -2 and MT1-MMP act inh RFP 8.
Screening O=C(Nc1ccc2[nH]c(=O)[nH]c2c1)c1ccc([N+](=O)[O-])o1 returned Yeast UUG start -12, HIV Env fusion 8, MT1-MMP act inh 5 and MT1-MMP act inh RFP -7.
Cc1nn(CC(=O)Nc2nnc(C(C)C)s2)c(=O)c2ccccc12 was read as eIF4H FP inh -6, PABP FP inh 2, HIV Env fusion -1, CSC inhib -7, MT1-MMP act inh -1 and MT1-MMP act inh RFP -4.
Screening O=C(COC(=O)c1ccccc1[N+](=O)[O-])Nc1nnc(-c2ccccc2)o1 returned Yeast UUG start -24, Rce1 inhib inactive, HIV Env fusion -3, CSC inhib -4, MT1-MMP act inh -1 and MT1-MMP act inh RFP 3.
For CCc1ccc(CN(C)C(=O)C2CCC(=O)N(CCCN3CCCC3=O)C2)cc1 (stereo unspecified) the results were Yeast UUG start -10, eIF4H FP inh -5, Rce1 inhib inactive, PABP FP inh -13, CSC inhib 4, MT1-MMP act inh -1 and MT1-MMP act inh RFP 4.
For C/C(=N\NC(=O)C(C)Nc1cccc(Cl)c1)c1ccc([N+](=O)[O-])cc1 (stereo unspecified) the results were eIF4H FP inh -2, Rce1 inhib inactive, PABP FP inh 1, HIV Env fusion 10, CSC inhib -5, MT1-MMP act inh 3 and MT1-MMP act inh RFP -1.
O=C(CSc1nnc(Cc2ccccc2)o1)N1CCCC1 was read as eIF4H FP inh 4, Rce1 inhib inactive, PABP FP inh -8, HIV Env fusion -8, CSC inhib -18, MT1-MMP act inh -5 and MT1-MMP act inh RFP -2.
Screening O=C(NN1CCOCC1)c1cnn2c(C(F)F)cc(-c3ccccc3)nc12 returned eIF4H FP inh -1, Rce1 inhib inactive, PABP FP inh 2, HIV Env fusion -21, CSC inhib -16, MT1-MMP act inh 4 and MT1-MMP act inh RFP 4.
For CCC1(CC)Nc2ccccc2C(=O)N1c1ccc(NC(C)=O)cc1 the results were Yeast UUG start -14, eIF4H FP inh -3, Rce1 inhib inactive, PABP FP inh 0, CSC inhib 22, MT1-MMP act inh 4 and MT1-MMP act inh RFP 4.
For CCOC(=O)C1(C(=O)OCC)COC(=O)C1CN1Cc2cc3ccccc3nc2C1 (stereo unspecified) the results were Yeast UUG start -21, HIV Env fusion -4, MT1-MMP act inh -11 and MT1-MMP act inh RFP 2.
Screening Cc1ccc(NC(=O)c2cc(C)on2)cc1 returned eIF4H FP inh -4, Rce1 inhib inactive, PABP FP inh 6, HIV Env fusion -67, CSC inhib -8, MT1-MMP act inh 4 and MT1-MMP act inh RFP 3.
`O=C(NCCC1CCCCN1S(=O)(=O)c1ccccc1)C(=O)NCc1cccnc1` (stereo unspecified) gave Yeast UUG start -7, Rce1 inhib inactive, HIV Env fusion 10, CSC inhib -13, MT1-MMP act inh -4 and MT1-MMP act inh RFP -1.
CCOc1ccc(Nc2ncnc3c2cnn3-c2ccccc2)cc1 was read as Yeast UUG start -10, eIF4H FP inh -5, Rce1 inhib inactive, PABP FP inh -1, HIV Env fusion 2, CSC inhib -3, MT1-MMP act inh -3 and MT1-MMP act inh RFP -2.
COc1ccc(CNc2ccc3c(c2)CCC3)cc1Br was read as Yeast UUG start -15, eIF4H FP inh -3, Rce1 inhib inactive, PABP FP inh 3, HIV Env fusion -32, CSC inhib 3, MT1-MMP act inh -8 and MT1-MMP act inh RFP -1.
For CC1CN(Cc2ccc(Cl)cc2Cl)CC(C)O1 (stereo unspecified) the results were Yeast UUG start -11, eIF4H FP inh -1, Rce1 inhib inactive, PABP FP inh 5, CSC inhib -1, MT1-MMP act inh 0 and MT1-MMP act inh RFP 7.
Screening CC(C)Nc1nc(Cl)nc(NNC(=O)C(C)Oc2ccccc2)n1 (stereo unspecified) returned Yeast UUG start -20, eIF4H FP inh -1, Rce1 inhib inactive, PABP FP inh -7, HIV Env fusion -8, CSC inhib 9, MT1-MMP act inh 12 and MT1-MMP act inh RFP 0.
For CSc1ccc(-c2nnn(Cc3ccc(C)cc3)n2)cc1 the results were eIF4H FP inh -17, Rce1 inhib inactive, PABP FP inh 0, CSC inhib -8, MT1-MMP act inh 1 and MT1-MMP act inh RFP 0.
Screening CCSc1nnc(NC(=O)CSc2sc3c(O)cc(=O)[nH]c3c2C#N)s1 returned Yeast UUG start -7, eIF4H FP inh 91*, Rce1 inhib inactive, PABP FP inh 64*, HIV Env fusion 7, CSC inhib -7, MT1-MMP act inh -4 and MT1-MMP act inh RFP 6.
`O=C(Nc1cccc(C(F)(F)F)c1)c1csc([C@@H]2O[C@H](CO)[C@H](O)[C@H](O)[C@H]2O)n1` gave Yeast UUG start -16, HIV Env fusion -18, MT1-MMP act inh 1 and MT1-MMP act inh RFP 4.
c1csc(-c2nn3c(C4CCCCC4)nnc3s2)c1 was read as Yeast UUG start -10, HIV Env fusion 7, MT1-MMP act inh 7 and MT1-MMP act inh RFP -2.

The list goes on (2 carried over from the part before).
`O=C(Nc1cccc(C(F)(F)F)c1)c1csc([C@@H]2O[C@H](CO)[C@H](O)[C@H](O)[C@H]2O)n1` gave Yeast UUG start -16, HIV Env fusion -18, MT1-MMP act inh 1 and MT1-MMP act inh RFP 4.
c1csc(-c2nn3c(C4CCCCC4)nnc3s2)c1 was read as Yeast UUG start -10, HIV Env fusion 7, MT1-MMP act inh 7 and MT1-MMP act inh RFP -2.
For C=CCN1CCN(C(=O)c2ccc(-c3ccccc3)cc2)CC1 the results were Yeast UUG start -10, eIF4H FP inh -6, Rce1 inhib inactive, PABP FP inh -9, HIV Env fusion -8, CSC inhib 22, MT1-MMP act inh 5 and MT1-MMP act inh RFP 4.
Screening Cc1cc(C)c(C)c(S(=O)(=O)Nc2cccnc2)c1C returned Yeast UUG start -8, Rce1 inhib inactive, HIV Env fusion 2, CSC inhib 8, MT1-MMP act inh 2 and MT1-MMP act inh RFP 1.
For N#CC1=C(N)OC2=C(C(=O)CCC2)C12CCN(C(=O)OCc1ccccc1)CC2 the results were Yeast UUG start -1, eIF4H FP inh -1, Rce1 inhib inactive, PABP FP inh 4, HIV Env fusion 14, CSC inhib -17, MT1-MMP act inh -2 and MT1-MMP act inh RFP 4.
Screening CC(=O)N1CCN(C2=Nc3cccc4cccc2c34)CC1 returned Yeast UUG start -14, eIF4H FP inh 32, Rce1 inhib inactive, PABP FP inh 59, HIV Env fusion -36, CSC inhib -14, MT1-MMP act inh -6, eIF4H FP inh retest 20, PABP FP inh retest 26 and MT1-MMP act inh RFP 4.
